YopH inh – YopH (Yersinia) phosphatase inhibition | fluorescence Ex485/Em525 | inhibition, %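 (about 10 µM by stock and volumes)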 | 140,000 tested, 0.16% active | AID 898;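 active means inhibition of 50% or more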;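 further: controls were vehicle for no effect and minimum signal wells for full effect; inactives centre near -20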
Mtb growth – M. tuberculosis H37Rv growth inhibitors, H37Rv strain (AID 1626). M. tuberculosis H37Rv growth inhibition; higher % means a stronger effect. 220,000 tested, 0.95% active. inhibition, % at 10 µM, or IC50 in µM where a hit was titrated;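 active means confirmed in a dose series; inconclusive means inhibition above 80% but not taken into the dose series; inactive means below 80% or under 30% at every dose of the series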;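 further: bacteria incubated seven days before Alamar blue readout; 0% = bacteria only wells and 100% = bacteria with antibiotic wells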
Mtb bLac sens – beta-lactam sensitization of Mtb H37Rv; M. tuberculosis H37Rv growth with meropenem, percent inhibition; hits of this screen are not shown here; 330,000 tested, 0.27% active; inhibition, % at 25 µM;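 active means about 74% or more and at least 40 points above the plate without the antibiotic, then above 30% in a dose series; inconclusive means first-round hits that could not be retested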;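 further: growth measured after seven days incubation then overnight dye step; 0% = bacteria only wells and 100% = bacteria with antibiotic; twin plates without the antibiotic show which effects depend on it; some results filed as inactive read as strong as hits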
RecA splice inh – inhibitors of M. tuberculosis RecA intein splicing. inhibition, %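 (about 9 µM by stock and volumes)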. P9WHJ3. 290,000 tested, 0.75% active. cell-free RecA intein splicing, fluorescence. AID 2221; in the data active means inhibition above about 30%; inconclusive means no clear call, values can overlap the other calls;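 further: 0% = vehicle wells and 100% = reference inhibitor control wells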
Target sequence (P9WHJ3 whole entry, looked up, canonical isoform): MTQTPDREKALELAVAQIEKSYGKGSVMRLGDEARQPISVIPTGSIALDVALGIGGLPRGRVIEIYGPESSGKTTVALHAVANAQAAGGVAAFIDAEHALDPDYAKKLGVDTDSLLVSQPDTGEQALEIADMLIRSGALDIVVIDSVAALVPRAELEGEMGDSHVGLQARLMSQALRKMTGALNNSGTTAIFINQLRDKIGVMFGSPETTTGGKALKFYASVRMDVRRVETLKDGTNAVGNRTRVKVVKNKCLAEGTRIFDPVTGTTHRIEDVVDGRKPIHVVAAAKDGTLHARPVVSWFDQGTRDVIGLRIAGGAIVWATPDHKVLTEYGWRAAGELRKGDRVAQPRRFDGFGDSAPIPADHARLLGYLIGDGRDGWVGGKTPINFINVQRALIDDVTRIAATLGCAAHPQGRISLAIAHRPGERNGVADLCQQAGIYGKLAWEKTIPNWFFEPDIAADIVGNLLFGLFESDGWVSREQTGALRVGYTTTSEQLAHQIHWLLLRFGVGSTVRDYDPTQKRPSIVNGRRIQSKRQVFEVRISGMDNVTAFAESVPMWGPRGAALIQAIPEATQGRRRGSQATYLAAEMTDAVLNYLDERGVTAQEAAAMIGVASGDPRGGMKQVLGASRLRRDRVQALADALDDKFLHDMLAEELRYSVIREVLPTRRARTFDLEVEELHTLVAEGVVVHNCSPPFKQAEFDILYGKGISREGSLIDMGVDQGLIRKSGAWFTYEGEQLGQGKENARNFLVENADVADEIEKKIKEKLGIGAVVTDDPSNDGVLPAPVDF
Arbovirus inh – antivirals against arbovirus infection; arbovirus infection cell-based antiviral screen; inhibition, % at 10 µM; 200,000 tested, 0.37% active; AID 1251;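 active means inhibition from about 30%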;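 further: bluetongue infection of BSR cells; cell survival read as ATP light after 72 h; 0% = infected wells without compound and 100% = uninfected wells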
Arbovirus inh repeat – recorded beside Arbovirus inh, whose call it bears; inhibition, %; measured here: 10K subset replicate screen; many hits read low in the repeat;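 first of two repeat runs on a subset; 0% = infected and 100% = uninfected wells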
The depositor's hits bear a star; ? = inconclusive; . = not tested or not shown. Some of the compounds tested; rates above refer to the full screens.

SMILES	YopH inh	Mtb growth	Mtb bLac sens	RecA splice inh	Arbovirus inh	others
COc1ccc(C(=O)NCC(=O)N/N=C(\C)Cc2ccccc2)cc1	.	.	2	-2.0	.
Cc1ccc(C(=O)Nc2ccccc2C(=O)NCc2ccccc2)cc1	-4	14%	19	-1.3	6
O=C(CSc1nc2c(cnn2-c2ccc(F)cc2)c(=O)[nH]1)N1CCCCC1	-24	5%	-1	1.0	6	Arbovirus inh repeat=3
COc1cccc(-n2c(SCC(=O)NCC3CCCO3)nc3c(c2=O)SCC3)c1 (stereo not drawn)	.	.	1	2.0	.
CCn1c(=N)c(S(=O)(=O)c2ccc(C)cc2)cc2c(=O)n3ccccc3nc21	.	8%	-12	-64	-4
O=S(=O)(c1cc(F)ccc1F)N1CCN2CCCC2C1 (stereo not drawn)	.	.	-2	0.5	.
CCCNc1nc(N2CCOCC2)nc(N2CCOCC2)n1	4	-9%	-10	-2.2	-1	Arbovirus inh repeat=1
CCOC(=O)CCNC(=O)CCNC(=O)C(c1ccccc1)c1ccccc1	.	2%	-1	1.2	.
COc1ccc(CC(=O)NC(C)c2nnc(SCC(=O)Nc3ccccc3)n2C)cc1 (stereo not drawn)	.	-1%	-5	0.5	7
COc1ccc(C2=NOC3(CC(=O)N(c4ccc(Cl)cc4)C3=O)C2)c(OC)c1 (stereo not drawn)	-9	-6%	2	1.5	0
CCc1ccc2oc(-c3ccc(NC(C)=O)cc3)nc2c1	.	.	16	0.7	.
O=C(NCc1cccnc1)c1cccs1	.	1%	0	0.0	1
COc1ccc(CN2CNc3c(c(=O)n(C)c(=O)n3C)C2)cc1	-36	-2%	3	-0.5	2
CN(C(=O)COC(=O)CCc1nc2ccccc2c(=O)[nH]1)C1CCS(=O)(=O)C1 (stereo not drawn)	.	6%	0	0.6	-4
CC(=O)c1cccc(S(=O)(=O)N2CCCC(c3nc4c(nnn4Cc4ccc(C)cc4)c(=O)[nH]3)C2)c1 (stereo not drawn)	.	.	0	2.1	.
COc1ccc(-c2cc(C(=O)N3CCCC(C(F)(F)F)C3)c3ccccc3n2)cc1OC (stereo not drawn)	.	.	-11	-1.5	.
CC(=O)Nc1ccc(/C(C)=N/NC(=O)c2ccncc2)cc1	.	?	98	-2.6	1
CN(CC(=O)Nc1ccc(C#N)cc1)Cc1ccc(Cl)cc1	-4	-1%	-13	0.5	13
CCCC(=O)c1c[nH]c(C(=O)NCCCN2CCOCC2)c1	-42	-2%	-8	12	-1
Cc1ccc2cccc(S(=O)(=O)Nc3ccc4c(c3)OCO4)c2n1	-60	9%	4	-0.5	10
CC1(C)CC(=O)C2=C(C1)OC(=O)C2(NC(=O)c1cccs1)C(F)(F)F (stereo not drawn)	-10	-5%	-4	-0.5	3
COc1ccc2nc(C)cc(SCC(=O)N/N=C/c3ccco3)c2c1	.	.	-3	-0.7	.
C=CCNC(=O)c1ccccc1CCc1ccccc1	.	5%	-10	2.2	-5
COc1ccc2nc(N3C(=O)/C(=C/c4ccccc4)NC3=S)sc2c1	-9	79%	74	-0.2	-11
Cc1ccc(N2C(=S)N=C(Nc3ccccc3C)C23CCOC(C)(C)C3)cc1 (stereo not drawn)	-4	6%	0	.	0
COc1ccc(N2CCN(C(=O)/C(C#N)=C/c3ccccc3)CC2)cc1	.	3%	6	7.9	-1
CSc1nnc2n(Cc3ccccc3)c(=O)c3c4c(sc3n12)COC(C(C)C)C4 (stereo not drawn)	9	.	-12	2.9	-4
O=Cc1c(C(=O)O)n(Cc2ccc(F)cc2Cl)c2ccccc12	.	.	-6	-4.3	.
CN(C)C(=O)COc1ccc(Oc2ccccc2)cc1	.	7%	0	-2.0	-2
COc1ccc(C(=O)N2CCCC(C(=O)N3CCCCCC3)C2)cc1 (stereo not drawn)	-22	-9%	-2	2.1	7
COc1ccc(S(=O)(=O)N(Cc2ccccc2)c2ccccc2C(=O)O)cc1	.	.	-4	0.9	.
Cc1ccc(S(=O)(=O)NCCC(=O)OCC(=O)N(C)c2ccccc2)cc1	.	.	70	-2.2	.
O=CN(c1ccccc1)c1ccc2ccccc2c1	.	0%	-2	0.5	-15
CCOc1ccccc1CN1CCNC(=O)C1CC(=O)N(C)CCC1CCOCC1 (stereo not drawn)	.	.	0	-3.8	.
CCCNC(=S)Nc1c(C)n(C)n(-c2ccccc2)c1=O	.	-19%	-10	-0.2	1
CCOc1ccc(NC(=O)CN(C)C(=O)c2ccc(C)c(S(=O)(=O)N3CCCCC3)c2)cc1OCC	.	.	0	2.3	.
CCN1CCN(C(=O)C2CCN(S(=O)(=O)N3CCC4(CC3)OCCO4)CC2)CC1	.	.	5	-1.2	.
CCc1ccccc1NC(=O)c1nnn(CC(=O)Nc2cccc(C)c2C)c1N	-16	-2%	9	0.0	-8
Cc1cc(NC(=O)COC(=O)c2cccc(S(=O)(=O)N3CCOCC3)c2)no1	32	-7%	0	-0.6	3
COc1ccc(C(=O)NC(=O)N2CCCCC2)cc1	-9	-11%	-3	1.2	5
Cc1ccc(C)c(SCC(=O)OCC(=O)N2CC(C)OC(C)C2)c1 (stereo not drawn)	.	-3%	.	0.3	5
COC(=O)c1sccc1NC(=O)Nc1cccc(C)c1C	.	.	-5	0.3	.
CC(C)C(=O)N1CCN(c2nc(-c3ccc(Cl)cc3)cs2)CC1	.	-2%	11	.	21
O=C1CC(SC(=NCc2ccc3c(c2)OCO3)Nc2ccccc2)C(=O)N1c1ccccc1 (stereo not drawn)	-18	-7%	4	-4.4	-6
CC(=O)c1c(O)cc(O)cc1CC(=O)O	.	16%	-7	-5.3	7
O=c1cc[nH]c2c1ccc1cccnc12	.	.	-7	-0.7	.
Cn1c(=O)n(CC(=O)NCc2cccnc2)c2ccccc21	-15	-8%	-11	1.0	6
C#CCn1c(-c2ccccc2)ccc(C#N)c1=O	.	9%	-5	-0.5	-8

The closing 4 compounds of the part above are carried over, then new ones follow:
SMILES	YopH inh	Mtb growth	Mtb bLac sens	RecA splice inh	Arbovirus inh	others
CC(=O)c1c(O)cc(O)cc1CC(=O)O	.	16%	-7	-5.3	7
O=c1cc[nH]c2c1ccc1cccnc12	.	.	-7	-0.7	.
Cn1c(=O)n(CC(=O)NCc2cccnc2)c2ccccc21	-15	-8%	-11	1.0	6
C#CCn1c(-c2ccccc2)ccc(C#N)c1=O	.	9%	-5	-0.5	-8
CC(C)(C)c1ccc(-c2nc(C#N)c(NCc3ccncc3)o2)cc1	-27	14%	97	7.4	-5
CCCCc1ccc(NC(=O)N[C@H](C(=O)O)C(C)C)cc1	0	2%	-6	0.6	-4
Cc1ccc(C(=O)N/C(=C\c2ccc(F)cc2)C(=O)NCCN2CCOCC2)cc1	.	.	-3	2.9	.
CC(C)(C)NC(=O)CSc1ncccc1-c1nc2ccccc2[nH]1	.	.	1	1.6	.
Cc1ccccc1NC(=O)c1ccccc1O	-56	3%	46	0.4	0
O=C(c1ccc(S(=O)(=O)NCc2ccco2)cc1)N1CCCC1	.	7%	-6	9.8	-1
Cc1cc(C)c2cc(CN(CCO)Cc3nnnn3Cc3ccc(F)cc3)c(=O)[nH]c2c1	-48	-2%	.	-4.0	6
O=C(CSc1nc2cc(S(=O)(=O)N3CCOCC3)ccc2o1)Nc1c(F)cccc1F	.	7%	2	0.9	-3
O=C(O)c1cccc(NS(=O)(=O)c2ccc3nnn(O)c3c2)c1	-28	-15%	-14	-1.3	13
COc1ccc(N(CC(=O)Nc2ccc3c(c2)OCO3)S(=O)(=O)c2ccc(C)cc2)cc1OC	.	-3%	-6	1.9	-15
Cn1c(=O)c2c(nc(SCC(=O)NCc3ccco3)n2C)n(C)c1=O	-7	-4%	2	-1.1	7
CC(=O)OCC(=O)Nc1ccc(N=Nc2ccccc2)cc1	-18	-2%	4	1.2	-5
Nc1cc(S(=O)(=O)C(F)(F)F)ccc1C(=O)O	-39	-5%	-13	-0.7	0
CCc1nnc2sc(-c3ccc(NC(=O)CSc4ccc(Cl)cc4)cc3)nn12	-15	.	-8	-3.1	.
COc1cc(NC(=O)CN2C(=O)CSc3ccc(S(=O)(=O)N4CCCC4)cc32)cc(OC)c1	.	.	3	4.0	.
COc1ccc(NC(=O)CN(C)S(=O)(=O)c2ccc(Cl)cc2)cc1Cl	20	2%	4	5.2	6
O=C(NCc1ccncc1)c1cc(S(=O)(=O)N2CCOCC2)c(Cl)cc1Cl	.	.	1	-5.2	.
CCOc1ccc2nc(SCC(=O)c3cccs3)sc2c1	-3	-3%	0	4.4	1
O=[N+]([O-])c1ccc(N2CCN(c3ccccn3)CC2)c(Cl)c1	.	.	6	3.2	.
CCN1CCN(CCCNC(=O)CCC(=O)N2CC(C)Oc3ccc(C)cc32)CC1 (stereo not drawn)	.	.	2	3.9	.
Cc1ccc(Nc2nnc(SCC(=O)Nc3cccc(S(=O)(=O)N4CCCCC4)c3)s2)cc1	-19	5%	-2	-3.3	7
O=c1c([N+](=O)[O-])cccn1Cc1ccccc1Cl	.	-2%	-4	-1.8	1
COc1ccc2[nH]cc(C(=O)N3CCCCC3)c(=O)c2c1	-40	0%	100	0.3	17
COc1ccc(NC(=O)CN(C)S(=O)(=O)c2ccc3c(c2)OCCO3)c2ncccc12	-12	2%	2	3.6	-7

3 compounds already listed, sorted by formula weight, lowest first.
SMILES	YopH inh	Mtb growth	Mtb bLac sens	RecA splice inh	Arbovirus inh	others
C#CCn1c(-c2ccccc2)ccc(C#N)c1=O	.	9%	-5	-0.5	-8
CC1(C)CC(=O)C2=C(C1)OC(=O)C2(NC(=O)c1cccs1)C(F)(F)F (stereo not drawn)	-10	-5%	-4	-0.5	3
CCn1c(=N)c(S(=O)(=O)c2ccc(C)cc2)cc2c(=O)n3ccccc3nc21	.	8%	-12	-64	-4

The listing picks up; the 2 compounds before the break are reprinted first.
SMILES	YopH inh	Mtb growth	Mtb bLac sens	RecA splice inh	Arbovirus inh	others
COc1ccc2[nH]cc(C(=O)N3CCCCC3)c(=O)c2c1	-40	0%	100	0.3	17
COc1ccc(NC(=O)CN(C)S(=O)(=O)c2ccc3c(c2)OCCO3)c2ncccc12	-12	2%	2	3.6	-7
CC1CCN(C(=O)Cn2cnc3c(cnn3C(C)(C)C)c2=O)CC1	.	-4%	-7	-0.3	22
Cc1nc2ccccn2c1C(=O)NCCCN1CCOCC1	-26	3%	-7	1.4	6
CC(C)=NNc1nc(-c2ccccc2)cs1	-16	-2%	2	0.8	-2
CSc1n[nH]c(NCc2ccccc2)n1	-12	1%	-5	0.0	6
CC1CCCC(C)N1CCCNC(=O)Cn1cc2c(n1)CCCC2 (stereo not drawn)	-15	0%	-5	-1.4	-2	Arbovirus inh repeat=-1
Cc1ccc(C(=O)N2CCCC(Nc3ccc(C(C)C)cc3)C2)cn1 (stereo not drawn)	.	.	6	-0.7	.
CC(C)CN(C(=O)c1cccc(S(=O)(=O)N2CCN(Cc3ccccc3)CC2)c1)C1CCS(=O)(=O)C1 (stereo not drawn)	.	.	-9	0.1	.
CCOC(=O)c1ccccc1NC(=O)c1c(O)[nH]c(=S)[nH]c1=O	.	-4%	76	1.1	.
O=C(Nc1ccc(S(=O)(=O)N2CCCCC2c2cccnc2)cc1)c1ccccc1F (stereo not drawn)	.	1%	0	3.2	-2
Cc1cccc(/C=C/C(=O)c2ccc(NC3=NCCCS3)cc2)c1	-15	29%	91	8.5	-35
COc1cc(NC(=O)CSc2ncnc3c2cnn3Cc2ccccc2)cc(OC)c1	0	-6%	0	0.6	1
C/C=C/CSc1nc2c(c(=O)[nH]c(=O)n2C)n1C(C)C	11	-13%	-8	-2.0	1
Cc1ccc(C(=O)NCC(=O)OCC(=O)Nc2ncc(C(F)(F)F)cc2Cl)cc1	-24	6%	2	-1.8	3
O=C(Cc1ccsc1)Nc1ccccc1F	.	.	-11	2.9	.
Cc1cc(C)nc(NC(=O)CN2C(=O)c3ccccc3S2(=O)=O)n1	.	.	-13	-0.9	.
Cc1cc(C)c(S(=O)(=O)NCCn2ccc3ccccc32)c(C)c1	-3	7%	-5	4.4	10
Cn1c(CNC(=O)c2cccs2)n[nH]c1=S	-37	-6%	4	-2.4	2
CCCc1nc(N)c(C#N)c(-c2cccnc2)c1CC	-17	0%	-2	-0.5	-1	Arbovirus inh repeat=-2
Nc1nc(-c2ccc3c(c2)NC(=O)CO3)cs1	-18	.	2	-1.5	-4
O=C(Nc1ccc(S(=O)(=O)N2CCCCC2)cc1)c1ccncc1	-36	-10%	-11	-1.6	-3
Fc1cccc(/C=N/Nc2nccnc2Cl)c1	.	.	1	2.6	.
COc1ccc(/C=N/Nc2nc(Nc3ccccc3)nc(N3CCCC3)n2)cc1	.	?	-1	2.0	12
CSc1ccc(C(=O)c2[nH]c(=O)[nH]c2C)cc1	.	.	3	-4.0	.
Nc1nc(N)n(-c2ccccc2)c(=Nc2ccccc2)n1	.	.	-2	-0.2	.

Screens as filed in PubChem.
